# Bead autofluor – flagged as autofluorescent in microsphere protease counterscreen | fluorescence intensity (concentration not given with the values) | compound autofluorescence counterscreen, microsphere flow cytometry; active compounds read high | 3.1% of 360,000 active;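 active = at least 3 SD above the mean of all compounds, about 16000 in these data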;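 note: 100 nL of 1 mM stock went into each well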
# Numbers without * were called inactive. An excerpt. The share of hits here may be higher or lower than overall.
no.	mol	Bead autofluor
1	Cc1cc(C)nc(Nc2nc(C(N)Cc3ccc(Cl)cc3)cs2)n1 (configuration not stated)	3432
2	CC1NC(=O)c2cccnc2-n2c1nc1ccccc1c2=O (configuration not stated)	2992
3	Nc1ccn(CCCN2CCN(C(=O)C3CC3)CC2)c(=O)n1	3797
4	CC(=O)Nc1cc(-c2ccc(S(C)(=O)=O)cc2)cn2c(-c3ccc(F)cc3)cnc12	2896
5	COc1ccc(NC(=O)c2cc(C3CCCCN3C(=O)c3cccs3)on2)c(C)c1 (configuration not stated)	3721
6	CC1(C)CC(=O)C=C(c2ccc(COC(=O)C(c3ccccc3)c3ccccc3)cc2)C1=O	3379
7	O=c1[nH]c(=O)n2c(c1-c1ccccc1)OC(CBr)C2 (configuration not stated)	3825
8	COC(=O)N1CCCCC1c1cc(C(=O)NCc2ccccc2)no1 (configuration not stated)	4179
9	CC(C)C[C@H]1CN([C@@H](Cc2ccccc2)CN2CCC[C@H]2CN2C(=O)C(=O)NC[C@@H]2Cc2ccccc2)C(=O)C(=O)N1CCc1ccccc1	5946
10	Cc1cccc(C)c1-n1nnnc1C1(C)CCC(=O)N1Cc1cccnc1 (configuration not stated)	5114

# Quoted from the listing:
# Under Bead autofluor, no. 9 has 5946
# Under Bead autofluor, no. 3 has 3797
# Under Bead autofluor, no. 4 has 2896
# Under Bead autofluor, no. 1 has 3432
# Under Bead autofluor, no. 7 has 3825
# Under Bead autofluor, no. 2 has 2992

# Other records follow:
no.	mol	Bead autofluor
11	COc1ccc(C2CC=C(C(C)=O)CN2S(=O)(=O)c2ccc(C)cc2)cc1 (configuration not stated)	5423
12	CCc1nc2ccc(C(=O)Nc3ccc(NC(C)=O)cc3)cn2c1N(CCC(C)C)CCN(C)C	3526
13	C[C@@H]1CN([C@@H](C)CO)C(=O)CCCn2cc(nn2)CO[C@H]1CN(C)C(=O)CCCN(C)C	3649
14	Cc1ccc(C(=O)Nc2nc(C(N)C(C)C)cs2)cc1 (configuration not stated)	3680
15	CC(C)(C)n1nnnc1C(c1ccccc1)N1CCN(C(=O)c2ccco2)CC1 (configuration not stated)	4532
16	CC(=O)N1CCN(C(=O)OC2CC3CC2[C@H]2CCCCN2C3=O)CC1 (some centres not stated)	5463
17	CNc1cncc(-c2ccc(F)c(F)c2)n1	2887
18	CSc1ncnc2c1ncn2CCCNCc1ccccc1	3651
19	Cc1ccc2nc(-c3ccc(F)cc3)c(CC3CCCCC3)n2c1	6669
20	COc1ccc(Cc2c(-c3cccc(Cl)c3)nc3ccc(Br)cn23)c(C)c1	5482

no.	mol	Bead autofluor
21	COc1ccc(CC(N)c2csc(Nc3nncc4ccccc34)n2)cc1 (configuration not stated)	3782
22	Cc1[nH]c2ccccc2c1C(=O)C(=O)NCc1nnnn1-c1ccc(F)c(F)c1	3422
23	COc1ccc(NC(=O)C2(C)CCN2Cc2ccc(C(C)C)cc2)cc1OC (configuration not stated)	2871
24	CCOC(=O)C1=CCN(S(=O)(=O)c2ccc(Br)cc2)C1c1ccccc1 (configuration not stated)	4398
25	CC1=C(C(=O)N2CCCCCC2)CC(CC(=O)NCCc2ccccn2)C(=O)N1Cc1ccccc1 (configuration not stated)	6043
26	Brc1ccc2nc(-c3ccco3)c(Cc3ccsc3)n2c1	5921
27	O=C(CC[C@H]1O[C@@H](n2ccc(=O)[nH]c2=O)[C@H](O)[C@@H]1O)N[C@@H](Cc1ccccc1)C(=O)NCC1CCCCC1	5485
28	C[C@@H]1CN([C@H](C)CO)C(=O)CCCn2nncc2CO[C@@H]1CN(C)C(=O)c1cc(-c2ccccc2)on1	2839
29	CCCCCCN1C[C@H](n2cc(C3CC3)nn2)[C@@H](O)C[C@@H]1c1ccccc1	3469
30	COc1cc(C(=O)N2CCCCC2c2cc(C(=O)NCc3cccnc3)no2)cc(OC)c1C (configuration not stated)	3956

no.	mol	Bead autofluor
31	CC(=O)c1ccc2c3c(ccc([N+](=O)[O-])c13)CC2	3330
32	CCOc1ccc(-c2noc(-c3csc([C@@H]4O[C@H](CO)[C@H](O)[C@H](O)[C@H]4O)n3)n2)cc1	2886
33	COc1ccccc1CNc1nc(-c2ccccc2CO)c2sccc2n1	3384
34	NC(COCc1ccccc1)c1csc(NC(=O)Nc2cccc(C(F)(F)F)c2)n1 (configuration not stated)	2982
35	O=C(NCC1CC1)c1ccc(-c2cn[nH]c2)c2ccoc12	3815
36	O=C(C[C@@H]1C[C@H]2c3cc(NC(=O)Nc4ccccc4F)ccc3O[C@H]2[C@H](CO)O1)NCC(F)(F)F	3611
37	O[C@@H]1CN(CC2CCCCC2)[C@@H](c2ccc(Cl)cc2)C[C@H]1n1cc(C2CC2)nn1	4044
38	CCCCn1nnnc1C1(C)CCC(=O)N1Cc1ccc(OC)cc1 (configuration not stated)	5184
39	O=C(Cc1cccc([N+](=O)[O-])c1)Nc1ccccc1	3983
40	CC1(C(=O)NS(=O)(=O)c2cccc(Cl)c2)CCN1C(=O)c1cccc2ccccc12 (configuration not stated)	3534

no.	mol	Bead autofluor
41	CC1COc2c3ccccc3nn21 (configuration not stated)	4101
42	Cn1c(=O)c2cc(NC(=O)NCCc3cccs3)ccc2n1Cc1cccc(C(F)(F)F)c1	3796
43	c1ccc(COc2ccc(-c3cc4nc(NCCOc5ccccc5)ccn4n3)cc2)cc1	3182
44	O=c1[nH]c2cc([N+](=O)[O-])cc(Cl)c2c2ccccc12	3897
45	Cc1ccccc1Cn1c(C)c(C(=O)NCc2cccc(Cl)c2)sc1=O	4130
46	COc1ccc(N2C(c3ccsc3)=Cc3cc4c(cc3C2c2c[nH]c3ccccc23)OCO4)cc1 (configuration not stated)	5573
47	COC(=O)[C@@]1(Cc2ccc(OC)cc2)[C@H]2c3cc(C(=O)N4CCCC4)n(CCc4c[nH]c5ccccc45)c3C[C@H]2CN1C(=O)c1ccccc1	6062
48	O=C(OCc1ccccc1)N1CCC2CC1c1c2cccc1N1CCOCC1 (configuration not stated)	4406
49	Cc1cccc(NNC(=S)Nc2ccccc2)c1	2804
50	CC(C)C[C@H]1CN(CCCC[C@H]2CNC(=O)C(=O)N2CCc2ccc(O)cc2)C(=O)C(=O)N1Cc1ccccc1	5506

no.	mol	Bead autofluor
51	CCc1nc2ccc(C(=O)N3CCN(C(=O)c4ccco4)CC3)cn2c1N(CCC(C)C)CCN(C)C	3589
52	COc1ccc(NC(=O)C2(C)CCN2Cc2ccc(OC)c3ccccc23)cc1OC (configuration not stated)	3498
53	O=c1[nH]c(C(F)(F)F)nc2c1nc1n2CCC1	2877
54	C[C@H](c1ccccc1)N1C[C@@H](COCc2ccccc2)Oc2cc(N3CC[C@@H](O)C3)ccc2S1(=O)=O	4304
55	NC(c1csc(Nc2cnccn2)n1)c1ccccc1Cl (configuration not stated)	3002
56	CC(C)CNc1ncnc2c1ncn2[C@H]1CN(Cc2cccc3ccccc23)C[C@@H](CO)O1	3846
57	CCCCN1C(=O)C(CC(=O)NCCCN(C)C)CC(C(=O)N2CCOCC2)=C1C (configuration not stated)	3516
58	C[C@@H]1CN([C@@H](C)CO)S(=O)(=O)c2ccc(Br)cc2O[C@@H]1CN(C)S(=O)(=O)c1cn(C)cn1	2787
59	CCC(=O)N1CCCC(C(=O)Nc2nc3ccccc3[nH]2)CC1 (configuration not stated)	3643
60	Clc1cccc(Cc2c(-c3cccc(Br)c3)nc3c4ccccc4ccn23)c1	6185

no.	mol	Bead autofluor
61	COc1ccc(C#Cc2ccc(C3=CC(=O)CC(C)(C)C3=O)cc2)cc1	3071
62	COc1cc2c(cc1OC)C(c1ccccc1[N+](=O)[O-])=NCC2	6527
63	O[C@@H]1CN(Cc2cccs2)[C@@H](c2ccc(Cl)cc2)C[C@H]1n1cc(-c2ccc(F)cc2)nn1	2865
64	COc1ccc(NC(=O)C2Cc3c(-c4cccc(C(N)=O)c4)ccnc3O2)cc1OC (configuration not stated)	3146
65	COc1ccccc1NC(=O)CCNC(=O)C1CCN(S(=O)(=O)c2ccccc2)CC1	3465
66	O=c1cc(-c2ccccc2)oc2ccc3ccccc3c12	2956
67	O=S(=O)(NC1CCN(Cc2ccccc2)CC1)c1ccc(F)c(F)c1	3966
68	OC(c1ccccc1)(c1nc(-c2cc(F)cc(F)c2)cs1)C(F)(F)F (configuration not stated)	3699
69	COc1ccc(CNC(=O)c2cn(Cc3ccc(S(=O)(=O)N(C)C)cc3)c(=O)s2)cc1	4257
70	CCN(CC)C(=O)c1cccc(-c2csc(C(O)c3ccc(F)c(OC)c3)n2)c1 (configuration not stated)	3706

no.	mol	Bead autofluor
71	CN[C@H]1C[C@H]2c3cc(-c4ccccc4)ccc3CCN2C(=O)[C@H]1[C@H](C)O	3734
72	O=C(O)Cc1ccc(NS(=O)(=O)c2ccc3c(c2)OCCO3)cc1	3449
73	Cc1cccc(N(CC(=O)NCc2ccco2)S(=O)(=O)c2ccccc2)c1	3442
74	COC(=O)[C@@]1(Cc2ccc(F)cc2)[C@H]2c3cc(C(=O)N(C)C)n(CCc4c[nH]c5ccc(O)cc45)c3C[C@H]2CN1C(=O)c1ccccc1	6094
75	Cc1ccc([C@@H]2CC(=O)[C@@H]3CN(S(=O)(=O)c4ccc(C)cc4)[C@H](c4cccc5ccccc45)C[C@@H]3N2S(=O)(=O)c2ccc(Cl)cc2)cc1	3075
76	CCC(c1nnnn1C1CCCC1)N1CCN(C/C=C/c2ccccc2)CC1 (configuration not stated)	5457
77	CCCCCCn1c(=O)n2n(c1=O)C[C@]1(OC(=O)NCC3CCCCC3)CN(S(=O)(=O)c3ccc(C)cc3)C[C@]1(O)C2	2805
78	Cc1nc(C(F)(F)F)ccc1C(=O)N1CCC(C)(C(=O)O)C1 (configuration not stated)	3636
79	FC(F)(F)c1ccccc1Cc1c(-c2ccco2)nc2ccc(Cl)cn12	5225
80	CC(C)C(=O)N1CCCCCCN1C(=O)C(C)C	2966

# Screen by screen, from the results shown:
# Bead autofluor, compounds 75 to 80, in order: 3075, 5457, 2805, 3636, 5225, 2966

# Returning to the listing, repeating the 6 entries before the break.
no.	mol	Bead autofluor
75	Cc1ccc([C@@H]2CC(=O)[C@@H]3CN(S(=O)(=O)c4ccc(C)cc4)[C@H](c4cccc5ccccc45)C[C@@H]3N2S(=O)(=O)c2ccc(Cl)cc2)cc1	3075
76	CCC(c1nnnn1C1CCCC1)N1CCN(C/C=C/c2ccccc2)CC1 (configuration not stated)	5457
77	CCCCCCn1c(=O)n2n(c1=O)C[C@]1(OC(=O)NCC3CCCCC3)CN(S(=O)(=O)c3ccc(C)cc3)C[C@]1(O)C2	2805
78	Cc1nc(C(F)(F)F)ccc1C(=O)N1CCC(C)(C(=O)O)C1 (configuration not stated)	3636
79	FC(F)(F)c1ccccc1Cc1c(-c2ccco2)nc2ccc(Cl)cn12	5225
80	CC(C)C(=O)N1CCCCCCN1C(=O)C(C)C	2966
81	C[C@@H]1CN([C@@H](C)CO)C(=O)c2c(c3ccccc3n2C)-c2ccccc2CO[C@H]1CN(C)S(=O)(=O)c1ccc(C#N)cc1	3063
82	COc1ccc(C(CNC(=O)CCNS(=O)(=O)c2ccccc2)N2CCOCC2)cc1 (configuration not stated)	4337
83	C[C@H](CO)N1C[C@H](C)[C@H](CN(C)S(C)(=O)=O)OCc2ccccc2-c2c(n(C)c3ccccc23)C1=O	3784
84	CCc1oc(-c2ccc(OC)cc2)c(C(=O)OCCCCCO)c1C(C)OCCO (configuration not stated)	5034
85	Cn1ccc(=O)c2cc([N+](=O)[O-])ccc21	3727
86	CCOC(=O)C1CCCN(C(=O)c2[nH]c(C(F)(F)F)nc2-c2ccccc2)C1 (configuration not stated)	6385
87	S=C(NN=Cc1ccccn1)Nc1ccccn1	3942
88	CC(=O)N1N=C(c2ccc(Br)cc2)CC1c1cccc([N+](=O)[O-])c1 (configuration not stated)	2886
89	CC1(C(=O)Nc2cccc(C#N)c2)CCN1C(=O)C1(c2ccccc2)CC1 (configuration not stated)	3406
90	CCCCNC(=O)C1(C)CCN1C(=O)c1ccc(OC)c(F)c1 (configuration not stated)	3959

no.	mol	Bead autofluor
91	O=C(C#Cc1ccccc1)c1ccccc1	4301
92	COCCNC(=O)C1(C)CCN(Cc2csc(-c3ccc(Cl)cc3)n2)C1 (configuration not stated)	3861
93	CCc1noc(C)c1C(=O)N(CC)CC(=O)NCc1ccc(F)cc1	3544
94	NC(c1csc(Nc2cc(NCc3ccco3)ncn2)n1)c1ccccc1Cl (configuration not stated)	3593
95	CCOC(=O)C1(C)CCN1C(=O)c1cccc(OC)c1 (configuration not stated)	3640
96	CC(O)(c1cccc(F)c1)c1nc(-c2ccc(Cl)cc2)cs1 (configuration not stated)	2999
97	CCc1ccc(C(O)c2ncc(-c3ccccc3C(F)(F)F)[nH]2)cc1 (configuration not stated)	3790
98	COc1ccc(-c2[nH]nc3nc(N4CCN(C(=O)c5ccoc5)CC4)cc(C(F)(F)F)c23)cc1	3482
99	COc1ccc(C(O)c2ncc(-c3cccc(OCc4ccccc4)c3)[nH]2)cc1F (configuration not stated)	3710
100	CCCc1c(C(=O)N/N=C(\CC)c2ccccc2)nnn1-c1nonc1N	3809

no.	mol	Bead autofluor
101	COCOCCn1cc(CN2CCS(=O)(=O)N(Cc3ccc(-c4ccc(OC)nc4)cc3)C(C(C)C)C2=O)nn1 (configuration not stated)	2917
102	Cc1ccc(S(=O)(=O)NN2CCCCCC2)cc1	4627
103	O=C(C1CCCCC1)N1Cc2ccccc2-n2nncc2C1	3837
104	CCOC(=O)[C@]12Cc3cc(Cl)ccc3[C@H]1N(CC(=O)OC)C(=O)c1ccccc12	5831
105	COc1ccc(C2NC(=O)c3ccccc3N2)c(OC)c1OC (configuration not stated)	3902
106	Cc1cccc(C)c1N1CCN(C(c2ccnc3ccccc23)c2nnnn2-c2ccc3c(c2)OCCO3)CC1 (configuration not stated)	6831
107	COc1cccc(C(=O)N2CCC[C@H]2C(=O)N2CCC[C@H]2C(=O)NCc2ccc(F)cc2F)c1	4099
108	COc1ccc(CC(N)c2csc(NC(=O)NCCc3ccc(OC)c(OC)c3)n2)cc1 (configuration not stated)	3543
109	C#CCNC(=O)C[C@@H]1C[C@@]2(C(=O)OC)CCCCC=C2N(Cc2ccc(Cl)cc2Cl)C1=O	4926
110	CCN1CCN(C(C(=O)NC2CCCCC2)c2cc3ccccc3o2)CC1 (configuration not stated)	5862
111	CC1(Cc2ccc(Cl)s2)C(=O)Nc2c(Cl)ccc(Cl)c21 (configuration not stated)	3817
112	O=C(c1nc2ccc(Cl)cn2c1CN1CCC[C@H]1CO)N1CCc2ccccc2C1	3382
113	CC(C)C1CN1CC(O)Cn1ccnc1[N+](=O)[O-] (configuration not stated)	5636

# Screening data deposited in PubChem by NMMLSC.
